Compound activity: PubChem BioAssay, National Center for Advancing Translational Sciences (NCATS)
Resorufin autofl – compounds fluorescent in resorufin spectral region; Compound fluorescence, resorufin region 547/598 nm, buffer; stronger effect = higher value; max dye-equivalent concentration, M; 59,000 compounds, 0.04% hits; AID 588; active = above 10 nM dye equivalent; inconclusive = 1 to 10 nM; inactive = 1 nM or less; a few of its hits are not listed in these tables; also: highest value over a series up to 38 µM
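Compounds in 100 mM Tris, pH 8.0, incubated 15 min at room temperature, then fluorescence read at 547 nm excitation/598 nm emission. Signal converted to dye-equivalent concentration via an on-plate six-point resorufin standard curve, per compound concentration.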
TSHR ag – activates the human thyroid stimulating hormone receptor | P16473 | HEK293-CNG-TSHR cells (CNG channel as cAMP sensor), membrane potential dye, cAMP | Potency, µM (doses to about 57.1 µM), without a hit: at the highest dose activation, most hits filed as activators | 73,000 compounds, 0.48% hits; active = well fitted activation curve of enough size with the parental cells flat; inconclusive = any curve in the parental cells; inactive = parental cells flat and receptor cells flat or falling; also: potency is read from the fitted curve at half-maximal effect; % of control where 0% means no effect; weak receptor curves with flat parental cells got no call and are not listed
Target sequence (P16473 whole entry, looked up): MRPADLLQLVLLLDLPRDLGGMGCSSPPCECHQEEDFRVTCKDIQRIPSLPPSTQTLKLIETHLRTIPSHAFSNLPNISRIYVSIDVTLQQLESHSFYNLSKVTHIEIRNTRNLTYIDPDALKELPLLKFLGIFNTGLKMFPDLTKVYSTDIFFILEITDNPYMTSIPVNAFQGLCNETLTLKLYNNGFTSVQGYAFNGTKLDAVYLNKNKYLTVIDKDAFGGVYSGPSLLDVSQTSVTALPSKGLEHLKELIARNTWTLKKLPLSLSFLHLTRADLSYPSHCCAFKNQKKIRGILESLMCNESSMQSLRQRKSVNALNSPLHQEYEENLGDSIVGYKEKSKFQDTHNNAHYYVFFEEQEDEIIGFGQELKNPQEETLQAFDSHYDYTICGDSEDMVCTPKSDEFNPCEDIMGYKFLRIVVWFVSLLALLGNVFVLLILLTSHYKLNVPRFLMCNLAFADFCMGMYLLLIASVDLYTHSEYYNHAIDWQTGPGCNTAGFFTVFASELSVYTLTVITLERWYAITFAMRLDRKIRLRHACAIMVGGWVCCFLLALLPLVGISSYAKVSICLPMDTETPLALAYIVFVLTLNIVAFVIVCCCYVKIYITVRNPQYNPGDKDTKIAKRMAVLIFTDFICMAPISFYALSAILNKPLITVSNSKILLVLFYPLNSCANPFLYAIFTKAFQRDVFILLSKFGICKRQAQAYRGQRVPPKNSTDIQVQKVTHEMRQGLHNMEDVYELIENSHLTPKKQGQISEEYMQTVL
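HEK 293 cells stably expressing TSHR and a modified CNG channel, with CNG-only parental cells as counterscreen, were preloaded 60 min at room temperature with membrane potential dye containing 100 uM RO 20-1724. Compound exposure was 30 min, and depolarization was read as fluorescence at 590 nm.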
A647 autofl – compound fluoresces in the A647 spectral region; Compound fluorescence, A647 channel (570/671 nm), Tris buffer; max dye-equivalent concentration, M; 59,000 tested, under 10 active; active means above 1 µM dye equivalent; inconclusive means 0.1 to 1 µM; inactive means 0.1 µM or less;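 also: values scaled relative to a standard on each plate; highest value over a series up to 38 µM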
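Compounds pinned into 100 mM Tris pH 8.0, 15 min at room temperature, then read with 570 nm excitation/671 nm emission filters. Fluorescence normalized to an on-plate six-point Alexa 647 standard curve, giving dye-equivalent concentration per compound concentration.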
AID923 – qHTS Assay for Allosteric/Competitive Inhibitors of Caspase-1: Spectroscopic Profiling in AFC Spectral Region; Potency, µM (series often up to 57.5 µM), without a hit: at the top dose fluorescence increase, usual class: activators; AID 923, 2007; 75,000 compounds, 1.1% hits; compound fluorescence, AFC spectral region (405/520 nm); almost no hit is shown here; active = well fitted activation curve with a large enough effect; inconclusive = small, poorly fitted or top-dose-only effect;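 also: potency is read from the fitted curve at half-maximal effect; 0% is about no effect; scaled to a free AFC standard on each plate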
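Titrations up to 57 uM read every 20 sec for 3 min (405/520 nm) with 50 nM caspase 1 and 5 uM Ac-WEHD-AFC, pH 7.5 HEPES buffer. Fluorescence-vs-time intercept gave baseline, scaled against on-plate AFC standard.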
A488 fluor – compound fluoresces in the A488 spectral region; max dye equivalency, M; compound autofluorescence, A488 spectral region, dye equivalency; stronger effect = higher value; AID 591; 59,000 compounds, 0.1% hits; active = above 10 nM dye equivalent; inconclusive = 1 to 10 nM; inactive = 1 nM or less; about half of its hits are not listed in these tables;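 also: highest value over a series up to 38 µM; compound alone in buffer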
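Readout is A488 dye-equivalent concentration, calibrated by a per-plate six-point Alexa 488 series. Compounds in 100 mM Tris buffer pH 8.0 were incubated 15 min at room temperature. Plates were imaged using 480 nm excitation/540 nm emission filters.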
* hit, by the source's call; i = inactive; ? = inconclusive; . = no result given; & = joins results of further samples; [ ] = another dose, or the depositor's remark. Some of the compounds tested; rates above refer to the full screens.

SMILES	Resorufin autofl	TSHR ag	A647 autofl	AID923	A488 fluor
CC1=C(C(=O)OC(C)C)C(c2c[nH]c3ccccc23)n2ncnc2N1 (configuration not stated)	.	-5%	.	-0.9%	.
CCOC(=O)c1cc(C#N)c(SCC(=O)c2cc(C#N)c(SC)nc2C)nc1C	i	7%	1.5e-08	3.3%	i
O=C(COC(=O)c1ccc(S(=O)(=O)N2CCCC2)cc1)NCc1ccccc1	i	-8%	1e-09	-1.3%	i
CCS(=O)(=O)CCSc1nc(C)cc(C)c1C#N	i	9%	1e-09	-0.9%	i
O=C1CCCC(O)=C1C1C2=C(CCCC2=O)Oc2ccccc21 (configuration not stated)	.	?	.	7.1%	.
O=C(C1CCN(S(=O)(=O)c2cccc3nsnc23)CC1)N1CCN(c2ccccc2F)CC1	i	-4%	5.2e-09	-0.5%	i
c1ccc(NCc2nnc3n2CCCCC3)cc1	i	0%	5.4e-09	1.1%	i
Cc1onc(-c2c(Cl)cccc2Cl)c1C(=O)Nc1ccc2c(c1)OCO2	.	-2%	.	-1.9%	.
CCOC(=O)[C@H](CCc1ccccc1)N[C@@H](C)C(=O)N1CCC[C@H]1C(=O)O	i	-9%[25.6 µM]	1e-09&2e-09	6.9%[25.7 µM]	i
CC(C)c1nnc(NC(=O)C2CCN(c3nc4ccccc4s3)CC2)s1	i	23%	1.1e-08	-1.9%	i
CC(=O)Nc1c(O)n(C)c2ccccc12	i	-1%	1e-09	-0.2%	i
c1ccc2c(NC3CC3)nc(-c3ccoc3)nc2c1	i	27%	3e-08	5.3%	i
Cc1ccc(S(=O)(=O)NC(C)C(c2cccs2)N2CCN(C)CC2)cc1 (configuration not stated)	i	.	3.3e-08	-0.2%	i
O=C(Nc1cccc(Oc2ccc3c(c2)C(=O)NC3=O)c1)c1ccco1	i	.	1e-09	-0.3%	i
Cc1ccc(S(=O)(=O)N2CCN(Cc3cccc(C)c3O)CC2)cc1	i	3%	2.1e-09	0.6%	i
Cc1ccc(NC(=O)CS(=O)CC(=O)NCCCN(C)c2ccccc2)cc1 (configuration not stated)	i	-7%	1e-09	0.0%	i
CC(=O)c1cccc(N=C2NC(=O)C(CO)(CO)S2)c1	i	.	2.6e-08	.	i
CCCOc1ccc(CCN2CCC(=O)NC2=O)cc1C	.	?	.	1.5%	.
Cc1ccc(NC(=O)C2CCCN(S(=O)(=O)c3ccc4c(c3)oc(=O)n4C)C2)nc1 (configuration not stated)	.	1%	.	-0.5%	.
O=C(O)C(Cc1c[nH]c2ccccc12)NS(=O)(=O)c1cccc2nsnc12 (configuration not stated)	i	.	1e-09	.	i
CCOC(=O)OCC1OC(c2ccccc2)C=CC1OC(=O)OCC (configuration not stated)	.	0%[11.4 µM]	.	1.5%[11.5 µM]	.
CCCC(NC(=O)c1ccccc1)c1nc2ccccc2n1Cc1ccc(C(=O)OC)o1 (configuration not stated)	i	?	2e-09	-0.2%	i
Cc1ccc(NC2c3ncccc3C(=O)N2Cc2ccc(F)cc2)cc1 (configuration not stated)	i	-23%	1.1e-08	-2.1%	i
CCCCCCN(C(=O)CCCCCN1C(=O)NC(c2ccc(-c3ccccc3)cc2)C(C(=O)OCc2ccccc2)=C1C)C(C(=O)NCCCC)c1ccccn1 (configuration not stated)	.	-7%	.	2.9%	.
O=C(NC1CCCCC1)C1CCN(S(=O)(=O)c2cccc3cccnc23)CC1	.	1%	.	1.3%	.
CN(CC(=O)Nn1cnnc1)S(=O)(=O)c1cc(Cl)ccc1Cl	i	22%	1e-09	-1.4%	i
CCOC(=O)N1CCC(=C(C#N)C(=O)Nc2cc(OC)ccc2OC)CC1	i	1%	1.9e-08	-0.8%	i
Cc1ccc2nc(NC(=O)COC(=O)c3ccco3)sc2c1	i	-1%	2.4e-09	-0.8%	i
CC1CN(C(=O)c2cnn3c(C(F)F)cc(-c4ccccc4)nc23)CC(C)O1 (configuration not stated)	i	?	2.1e-08	3.4%	i
O=C(Nc1ccc2c(c1)nc1n2CCOC1)C1CCCCC1	i	-16%	2.6e-08	-0.3%	i
CCN(CC)S(=O)(=O)c1ccc(NC(=O)c2ccccn2)cc1	i	2%	1.7e-08	0.8%	i
CCS(=O)(=O)N1CCC(C(=O)N2CCN(c3ccccc3)CC2)CC1	i	2%	1.2e-08	2.0%	i
CC(C)CCn1c(SCC#N)nc2c(sc3ccccc32)c1=O	i	?	1e-09	-0.6%	i
CCn1c(SCC(=O)c2ccc(O)c(O)c2)nnc1-c1ccccc1OC	i	.	1e-09	-0.8%	i
Cc1ccc(C(CCN)c2ccco2)cc1 (configuration not stated)	i	-2%	5e-09	0.9%	i
Cc1nccc2[nH]c(=O)c(C(=O)NCCCN(C)C3CCCCC3)cc12	i	5%	2.5e-08	-0.2%	i

Reformatted: results already given
Compound | Resorufin autofl | TSHR ag | A647 autofl | AID923 | A488 fluor
O=C(Nc1ccc2c(c1)nc1n2CCOC1)C1CCCCC1 | i | -16% | 2.6e-08 | -0.3% | i
CCN(CC)S(=O)(=O)c1ccc(NC(=O)c2ccccn2)cc1 | i | 2% | 1.7e-08 | 0.8% | i
CCS(=O)(=O)N1CCC(C(=O)N2CCN(c3ccccc3)CC2)CC1 | i | 2% | 1.2e-08 | 2.0% | i
CC(C)CCn1c(SCC#N)nc2c(sc3ccccc32)c1=O | i | ? | 1e-09 | -0.6% | i

Next part
SMILES	Resorufin autofl	TSHR ag	A647 autofl	AID923	A488 fluor
O=C(Nc1nccs1)C1CCCN1S(=O)(=O)c1ccc(Cl)cc1 (configuration not stated)	i	1%	2e-08	0.0%	i
CC1CN(c2nc3c(c(=O)n(C)c(=O)n3C)n2Cc2c(Cl)cccc2Cl)CC(C)O1 (configuration not stated)	i	18%	3.5e-08	0.1%	i
Cc1ccsc1/C=N/n1cnc2sc(C)c(C)c2c1=O	i	?	1e-09	-1.0%	i
CC1CCCCN1C(=O)Cn1c(=O)n(CCC(=O)NCc2ccco2)c(=O)c2sccc21 (configuration not stated)	i	5%	1.5e-08	-1.3%	i
COc1cccc(OC)c1C(=O)N1CCN(c2ccccn2)CC1	i	.	4.5e-09	0.9%	i
CCCOC(=O)NC(CC)COC(=O)Nc1cc(C)ccc1C (configuration not stated)	i	5%	1e-08	-0.9%	i
CCOC(=O)c1c(C)oc2ccc(NS(=O)(=O)c3ccc4c5c(cccc35)C(=O)N4)cc12	i	25µM*	1.8e-08	8.0%	i
O=C(CN(C1CC1)S(=O)(=O)c1ccc(S(=O)(=O)N2CCCCCC2)cc1)Nc1ccccc1	i	.	3.8e-08	-1.5%	i
Cc1ccc(NCc2nnc(SCC(=O)c3ccccc3)n2Cc2ccco2)c(C)c1	i	0%	3.6e-08	0.4%	i
O=C(Cn1cc2c(n1)CCCCC2)N1CCc2ccccc2C1	.	?	.	-2.2%	.
CCOC(=O)CN1CC23C=CC(O2)C(C(=O)N2CCN(c4ccc(F)cc4)CC2)C3C1=O (configuration not stated)	.	?	.	-1.5%	.
O=C(OC(C(=O)NCC1CCCO1)c1ccccc1F)c1ccco1 (configuration not stated)	i	-5%	5.6e-09	-1.0%	i

Some entries already given, limited to TSHR ag:
structure | TSHR ag
CCN(CC)S(=O)(=O)c1ccc(NC(=O)c2ccccn2)cc1 | 2%
CCS(=O)(=O)N1CCC(C(=O)N2CCN(c3ccccc3)CC2)CC1 | 2%

(cont.)
SMILES	Resorufin autofl	TSHR ag	A647 autofl	AID923	A488 fluor
O=C(O)CCN(CCC(=O)O)S(=O)(=O)c1ccccc1	i	-6%[11.4 µM]	3.1e-08	-0.4%	i
COC(=O)COc1nc(C)c(Br)c(OC)n1	i	.	5.2e-08	-0.2%	i
COc1cccc(-c2csc(N3CCN(Cc4ccccc4)CC3)n2)c1	i	8%	8.3e-09	7.3%	i
Cc1noc(C)c1-c1cc(NC2CCNCC2)ncn1	i	1%	9.6e-09	-0.3%	i
Cn1c(=O)[nH]c(=O)c2c1nc(OC(=O)c1ccccc1)n2CC(O)COc1ccc(F)cc1 (configuration not stated)	i	9%	7.8e-09	-1.7%	i
CO/N=C(\C(=O)N[C@@H]1C(=O)N2C(C(=O)O)=C(COC(N)=O)CS[C@@H]12)c1ccco1	i	-2%[25.6 µM]	4.4e-08	2.1%[25.7 µM]	i
O=c1c2ccccc2nc(SCc2cn3ccsc3n2)n1-c1ccccc1F	i	?	2.4e-08	-1.9%	i
CC(=O)c1cccc(NC(=O)CN(c2ccc(C)cc2)S(=O)(=O)c2cccc3nonc23)c1	i	11%	2.5e-08	1.8%	i
O=C(CC1N=C2c3ccccc3N=C(SCc3ccc(F)cc3)N2C1=O)NCc1ccco1 (configuration not stated)	i	?	2.2e-08	2.0%	i
CCOc1ccc(C(=O)Nc2ccc(N3CCCC3)cc2)cc1	i	-16%	3.3e-09	0.1%	i
CC1=C(C(=O)OCCOC(C)C)C(c2cc3c(cc2Br)OCO3)C2=C(CCCC2=O)N1 (configuration not stated)	i	-4%	3.4e-09	17%	i
COc1ccccc1C1CC(c2ccc(Cl)cc2Cl)Nc2nc(N)nn21 (configuration not stated)	.	21%	.	-0.4%	.

Exported with values under each structure: two of the compounds above.
The line under a structure holds: Resorufin autofl | TSHR ag | A647 autofl | AID923 | A488 fluor
CC(=O)c1cccc(NC(=O)CN(c2ccc(C)cc2)S(=O)(=O)c2cccc3nonc23)c1
→ i | 11% | 2.5e-08 | 1.8% | i
O=C(CC1N=C2c3ccccc3N=C(SCc3ccc(F)cc3)N2C1=O)NCc1ccco1 (configuration not stated)
→ i | ? | 2.2e-08 | 2.0% | i

(next part)
SMILES	Resorufin autofl	TSHR ag	A647 autofl	AID923	A488 fluor
O=S(=O)(Nc1nc2ccccc2nc1Nc1ccc2c(c1)OCCO2)c1cccs1	i	-25%	1e-09	13%	i
COc1ccc(N2CCN(C(c3cccc(OC)c3OC)c3nnnn3C3CCCC3)CC2)cc1 (configuration not stated)	i	?	1e-09	-0.8%	i
Cc1ccc(OCC(=O)Nc2cccc(O)c2)cc1C	i	2%	3.6e-09	0.0%	i
Cn1nnnc1-c1cc(Br)ccc1NC(=O)c1ccccc1	i	.	1.3e-09	.	i
Cc1ccc(CS(=O)(=O)CCC(=O)NCc2ccccn2)cc1	i	7%	3.1e-08	-0.5%	i
CCCNCc1cc(OCC)c(OCC(N)=O)cc1Br	i	15%	8.1e-09	-0.5%	i
Cc1ccc(-n2nc3c(c2NC(=O)c2ccc(OC(C)C)cc2)CS(=O)C3)cc1 (configuration not stated)	i	?	2.6e-08	-0.1%	i
CN(C)/C=N/c1c(C#N)cnn1-c1ccccc1	.	4%	.	0.5%	.
Cc1cc2nc(-c3cccc(NC(=O)c4ccc(Br)o4)c3C)oc2cc1C	.	?	.	0.2%	.
O=C(c1cc(C(F)(F)F)cc(C(F)(F)F)c1)N1CCC2(CC1)CN(Cc1ccccc1)C2	i	-5%	1.2e-08	-0.4%	i
CCc1c(C)nc2c(C#N)c(C)[nH]n2c1=O	i	7%	1e-09	-0.2%	i
CCOC(=O)N1CCN(C(=O)c2ccc3c(=O)n(Cc4ccccc4)c(=S)[nH]c3c2)CC1	i	?	5.7e-09	-0.5%	i
CCOc1ccc(NC(=O)CN2CCN(CC(=O)Nc3ccc4c(c3)OCCO4)CC2)cc1	i	6%	3.4e-08	-1.1%	i
CCCCC1CC(CSc2ncn[nH]2)OC1=O (configuration not stated)	.	23%	.	1.9%	.
CN(C)CCC(=O)[C@@]1(O)CC[C@H]2[C@H]3CC=C4C[C@@H](O)CC[C@]4(C)[C@H]3CC[C@]21C	i	3%[11.4 µM]	2e-09	-0.8%[11.5 µM]	i
CCc1c(C)nc2ncnn2c1N1CCC(C(=O)N2CCN(c3ccc(F)cc3)CC2)CC1	i	7%	1.3e-08	-1.6%	i
